# Compound activity as filed in PubChem.
# Ba CapD inh: Bacillus anthracis CapD inhibitors, primary screen, biochemical, fluorescence intensity; AID 492967, 2010; z-score (concentration not given with the values); purified CapD enzyme, fluorescence intensity read-out; stronger effect = lower value; some hits fall short of the stated cut; hit rate 0.23% among 140,000;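 active means z-score under -4 in either of two replicates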;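 further: stock transfer was 100 nL into about 40 µL; score is relative to mean and spread of the plate; one replicate is shown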
# AID504770: growth inhibition of E. coli YBA685, primary screen, V. cholerae RctB inhibitors. E. coli YBA685 rctB-dependent plasmid, OD600 growth, 3 h; stronger effect = lower value. hit rate 0.27% among 130,000. z-score (no concentration beside the values);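 active means z-score under -2 on both plates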;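 further: wells of about 30 µL received 100 nL stock; score is relative to mean and SD of the test wells; the first replicate is given; strong numbers were not always called active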
# The depositor's hits bear a star; . = not tested or not shown; & = joins results of further samples.
compound,Ba CapD inh,AID504770
O=C(COc1ccccc1)NN=C1CCCCC1,-0.07,1.2
O=C(CC1SC(=O)NC1=O)Nc1ccc(NC(=O)CC2SC(=O)NC2=O)cc1 (stereo not given),0.1,.
COc1ccc2c(c1)S(=O)(=O)c1ccccc1N2,14,0.35
COc1ccc(CONS(=O)(=O)c2ccc(NC(C)=O)cc2)cc1Cl,0.3,-0.6
Cn1c2c(c(=O)n(C)c1=O)C(c1cc(Cl)ccc1Cl)C1=C(N2)c2ccccc2C1=O (stereo not given),0.41,.
C/C(=N\NC(=O)c1cc2c3ccccc3n(C)c2s1)c1ccc(OCC(N)=O)cc1,.,0.4
CCN(CC)c1nc2ccccc2c(=O)n1-c1ccccc1,15,-0.05
CCOc1cc(/C=c2/sc3n(c2=O)C(c2ccc(OC(C)=O)cc2)C(C(=O)OC)=C(C)N=3)ccc1OC(C)=O (stereo not given),-0.12,.
C=CCSc1nc2c(cnn2-c2ccccc2)c(=O)[nH]1,-0.38&0.09,0.2&-0.15
C=CCNC(=S)N/N=C1\CCc2ccccc21,.,-2
Cn1c(CSc2nc(N)cc(N)n2)nnc1SC/C=C/c1ccccc1,.,0
CC(=O)Nc1ccc(NC(=O)C(C)Oc2ccccc2)cc1 (stereo not given),-0.18,0.6
c1ccc(CSc2nccc(-c3ccco3)n2)cc1,-1.1,1.4
CCC(CC)c1nnc(NC(=O)c2cccs2)s1,-1,-1
Cc1cc2ccccc2n1CCNC(=O)C(C)(C)C,1.3,-0.8
CCN(CC)c1ncnc2sc(C(=O)NCCN3CCOCC3)c(C)c12,-0.56,.
O=C1CN(/N=C/c2ccc([N+](=O)[O-])o2)C(=O)N1,-0.95&1.9,-2.3*
COc1cccc(-c2cc(C(=O)N3CCc4ccccc4C3)[nH]n2)c1,-1.8,1.1
O=S(=O)(NC1=NCCCN1)c1cc(C(F)(F)F)cc(C(F)(F)F)c1,0.76,-0.8
Cc1nc(=O)c(-c2ccccc2)c(C)n1CCc1cnc[nH]1,.,-0.85
CSc1nc2c(sc(=S)n2-c2ccccc2)c(=O)n1Cc1ccco1,-0.29,.
COC(=O)c1sc(SC)c(S(=O)(=O)C(C)C)c1N,-0.85,.
Cn1cc(C2CC(=O)N(c3ccc(Br)cc3)C2=O)c2ccccc21 (stereo not given),-0.76,-0.1
O=C1C2C(c3ccccc3)CCC(c3ccccc3)C2C(=O)N1c1ccccc1 (stereo not given),0.32,.
COc1ccc(Cl)cc1-n1c(=S)sc2c(=O)[nH]c(SCC(=O)NCc3ccco3)nc21,0.51,.
Cc1cccc2sc(NN)nc12,2.8,-0.45
COc1cc(C(=O)Nc2cccc(O)c2)c2ccccc2n1,-0.26,-0.3
CCN(CC)CCNS(=O)(=O)c1ccc2c(c1)CN(C(=O)C(F)(F)F)CC2,0.11,.
O=C(O)c1ccccc1Cc1cccs1,.,-0.55
CC(NC(=O)COc1ccccc1)C(=O)N1CCN(c2ccccc2)CC1 (stereo not given),.,0.1

# Gathered by group: the entries above with a CF3 group.
compound,Ba CapD inh,AID504770
O=S(=O)(NC1=NCCCN1)c1cc(C(F)(F)F)cc(C(F)(F)F)c1,0.76,-0.8
CCN(CC)CCNS(=O)(=O)c1ccc2c(c1)CN(C(=O)C(F)(F)F)CC2,0.11,.

# Next part
compound,Ba CapD inh,AID504770
O=C(c1cc2cc(Br)ccc2o1)N1CCc2c([nH]c3ccccc23)C1c1ccc(Cl)cc1 (stereo not given),-0.62,.
CSC1=NCCN1C(=O)C1c2ccccc2Oc2ccccc21,.,-1.1
CCOc1ccccc1NC(=O)/C(C#N)=c1\s/c(=C\c2ccco2)c(=O)n1-c1c(C)cccc1C,.,0.2
COc1cccc(/C=C2/NC(=O)N(c3ccccc3)C2=O)c1,-0.35,1.8
C[C@H](NC(=O)c1ccco1)C(=O)Nc1cc(Cl)ccc1N1CCCC1,.,-0.6
C(=C\c1ccccc1)/CNCCSc1nnnn1-c1ccccc1,-0.34,-1.6
N[C@@H](Cc1cc(I)c(Oc2cc(I)c(O)c(I)c2)c(I)c1)C(=O)O,1.6,-0.05
O=C(NCc1ccco1)c1ccc2c(O)c(S(=O)(=O)c3ccccc3)c(=O)[nH]c2c1,7.7,-0.9
O=C1CC(c2ccccc2)c2cc3c(cc2N1)OCCO3 (stereo not given),-0.3,-0.25
Cc1cc(-c2ccc(S(=O)(=O)NCCN3CCCC3)s2)on1,0.8,-0.2
O=C(/C=C/c1cccc(N2C(=O)C3C4C=CC(C4)C3C2=O)c1)NCc1ccco1 (stereo not given),0.32,-0.8
Cc1cc(=O)[nH]c(SCC(=O)Nc2ccc(N3CCCC3)cc2)c1C#N,.,-0.75
CNC(=O)c1c[nH]c2ccc(S(=O)(=O)Nc3cccc(OC)c3)cc2c1=O,-0.23,2
CC1=NN(c2nc3ccccc3[nH]2)C(=O)C1Cc1ccccc1 (stereo not given),-1,-0.85
Cc1cc(NC(=O)c2ccc(Cl)c(Cl)c2)ccc1NC(=O)c1ccco1,.,0
CC1(C)C2CC=C(COC(=O)NNC(=O)c3ccc(-c4ccccc4)cc3)C1C2 (stereo not given),35,.
CSC(=CC(=O)c1ccc(F)cc1)SC,-2.9,0.3
COc1ccc(C(CNC(=O)Nc2ccc(C)cc2)N2CCCC2)cc1 (stereo not given),.,-0.35
CC1=NN(c2ccc(Cl)c(C(=O)O)c2)C(=O)/C1=C/c1ccc(-c2ccccc2[N+](=O)[O-])o1,-0.84,.
CCOC(=O)c1c(C)n(-c2ccc(C)cc2)c2ccc(OCC(O)CNCc3ccco3)cc12 (stereo not given),.,1.7
COc1ccc(OC)c(-c2nc(N)sc2N=Nc2cccnc2)c1,.,0.6
O=C(O)c1ccc2c(c1)C(=O)N(C1=NCCS1)C2=O,-0.71,-0.45
O=c1oc2cc(OCc3c(F)cccc3F)ccc2c2c1CCC2,3.8,-0.5
COc1cc(C(=O)N2CCOCC2)nc(OC)n1,-0.34,.
CN(C)CCn1c(=O)n(C)c(=O)c2[nH]cnc21,-0.53,0.15
C=CCNCc1ccc(-c2ccc(OC)c(Cl)c2)o1,.,-0.05
CCCCOc1cccc(NC(=O)CSc2nc(C)cc(C)c2C#N)c1,0.23,.
C=C(NC(=O)C(=C)NC(=O)c1csc(C2=NC3c4csc(n4)C4NC(=O)c5csc(n5)C(C(C)(O)C(C)O)NC(=O)C5CSC(=N5)C(=CC)NC(=O)C(C(C)O)NC(=O)c5csc(n5)C3(CC2)NC(=O)C(C)NC(=O)C(=C)NC(=O)C(C)NC(=O)C(C(C)CC)NC2C=Cc3c(C(C)O)cc(nc3C2O)C(=O)OC4C)n1)C(N)=O (stereo not given),0.085,.
Cc1cc(C=C2C(=O)N(C)C(=O)N(C)C2=O)c(C)n1-c1cc(C(=O)O)cc(C(=O)O)c1,-0.89,.
CCOC(=O)C1CCCN(C(=O)c2cccc(C)c2)C1 (stereo not given),0.45,0.75

# (cont.)
compound,Ba CapD inh,AID504770
COc1cc2[nH]c(=S)n(C3CC3)c(=O)c2cc1OC,0.08,0.05
CC(=O)Nc1ccc(Sc2ccccc2C(=O)NCCc2ccccc2)cn1,-0.35,.
O=C(NCc1ccc2c(c1)OCO2)c1cccnc1,.,1.5
O=C1c2cc([N+](=O)[O-])cc3cc([N+](=O)[O-])cc(c23)C(=O)N1c1ccc(Br)cn1,0.1,.
CCOP(=O)(COCP(=O)(OCC)OCC)OCC,-0.17,.
CC1CCN(C(=O)c2cc(-c3ccc(Cl)cc3)cs2)CC1,-0.48,.
Cc1nc(-c2ccncc2)ncc1-c1nsc(Nc2ccccc2)n1,-0.62,-0.6
NC(=O)Cc1cc(Br)sc1Br,-0.045,-0.1
Cc1cccc(CN2CCN(C(=O)Cc3nc(-c4ccccc4)oc3C)CC2)n1,0.24,.
N#Cc1c2c(c(N3CCOCC3)[nH]c1=S)CCCC2,.,0.35
O=C(OCc1c(F)cccc1Cl)c1ccccc1N1CCCC1=O,.,-0.5
CCOC(=O)c1cnc2c(OC)cccc2c1N1CCN(c2cccc(Cl)c2)CC1,-0.6,.
COc1ccc(C2Nc3ccccc3C(=O)N2c2ccccc2)cc1Cn1nnc2ccccc21 (stereo not given),40,.
CNC(=O)n1cc(C)c(-c2cccs2)n1,0.2,-0.4
Cc1cccc(C)c1NC(=O)CNC(=O)CSc1nnc(-c2cccnc2)n1Cc1ccco1,.,0.85
O=c1[nH]cccc1-c1nc2cc(Cl)c(Cl)cc2n1Cc1cccc(F)c1,70,.
Cc1cc(CN2CCc3ccccc3C2)cs1,0.28,-0.6
N#CC(c1ccc(O)cc1)N1CCN(C(C#N)c2ccc(O)cc2)CC1 (stereo not given),0.08,0.65
Cc1cc(C(=O)Nc2ccccc2)c(-c2ccccc2)o1,-1.7,-0.15
N#CC1(C#N)C(c2cccc(I)c2)C(C(=O)c2ccccc2)N2c3ccccc3C=CC21 (stereo not given),0.71,.
Ic1cccc(-c2nc3ccccc3nc2-c2cccc(I)c2)c1,0.33,.
CC1(C)CC(=O)C2=C(C1)OC1=C(C(=O)CC(C)(C)C1)C2c1ccc(OCC(=O)N2CCOCC2)cc1,0.42,.
CC(=O)NCc1ccc(C(=O)COC(=O)c2cc(-c3ccccc3)nn2-c2ccccc2)o1,.,0.5
CCSc1nc(N)cc(=O)[nH]1,0.005,1.4
Cc1cccc(C)c1N1CCN(S(=O)(=O)c2ccc(Cl)c(Cl)c2)CC1,-1,.
O=C(CSc1ncccn1)Nc1ccccc1C(F)(F)F,0.04,1.7
COc1ccc(-c2cn3c4c(=O)n(C)c(=O)n(C)c4nc3n2-c2ccccc2)cc1,-0.39,.
CC1=NNC(=O)C1C(c1ccccc1F)C(C#N)C#N (stereo not given),1.2,-0.25
CNC(=O)c1ccc2snnc2c1,0.14,-0.4
COCCOC(=O)C1=C(N)OC2=C(C(=O)CCC2)C1c1ccccc1[N+](=O)[O-] (stereo not given),0.04,.

# Record cards, as listed above. Screens in order: Ba CapD inh	AID504770
# `O=C(NCc1ccc2c(c1)OCO2)c1cccnc1` across the screens: .	1.5
# `COc1ccc(C2Nc3ccccc3C(=O)N2c2ccccc2)cc1Cn1nnc2ccccc21` (stereo not given) across the screens: 40	.
# `CCOP(=O)(COCP(=O)(OCC)OCC)OCC` across the screens: -0.17	.
# `N#CC1(C#N)C(c2cccc(I)c2)C(C(=O)c2ccccc2)N2c3ccccc3C=CC21` (stereo not given) across the screens: 0.71	.
# `Cc1cccc(C)c1NC(=O)CNC(=O)CSc1nnc(-c2cccnc2)n1Cc1ccco1` across the screens: .	0.85

# Further compounds:
compound,Ba CapD inh,AID504770
CCc1c(C)nc2[nH]nc(NC(=O)C(F)(F)F)n2c1=O,.,-0.95
COc1cc(/C=C(\C#N)C(N)=S)cc(OC)c1OC,0.41,.
COc1ccc(Br)c(-c2nc(-c3cccs3)no2)c1,-0.95,1.3
Cc1ccc(C)c(S(=O)(=O)Nc2ccc(C(=O)N3CC(C)OC(C)C3)cc2)c1 (stereo not given),0,-0.75
Cc1cc(N2CCNCC2)nc(C(C)C)n1,.,-0.5
c1nc(NCCN2CCOCC2)c2nc3n(c2n1)CCCCC3,0.12,-0.1
CCOC(=O)C1C2NC(=S)N[C@]1(C)Oc1ccccc12 (stereo not given in full),-0.49,2.5
C=C(C1CC1)N(Cc1ccccc1)C(=O)c1cccc(F)c1,1.5,0.3
CN(C)c1nc(N)nc(C2CCCN2S(=O)(=O)c2ccc3ccccc3c2)n1 (stereo not given),-0.54,2
CCN(CC)c1ccc2nnc(CCC(=O)N(CC)c3ccccc3)n2n1,-2.4,1.1
CC(C)c1cccc(C(C)C)c1NC(=O)c1ccncc1,.,-0.8
COc1cc(C2Nc3ccc4ccccc4c3C3=C2C(=O)CC(C)(C)C3)c(Br)cc1OCc1ccc(Cl)cc1Cl (stereo not given),-0.32,.
O=C(Cn1ccn(-c2ccc(F)cc2)c(=O)c1=O)Nc1ccccc1,-0.72,0.55
O=C(NNC(=O)c1cc(-c2ccccc2)nc2ccccc12)OCc1nc(-c2ccc(Cl)cc2)cs1,11,.
CCOc1ccc(COC(=O)NNC(=O)c2cc(-c3nc(C)cs3)c(SC)s2)cc1,2.9,.
COc1ccccc1NC(=O)N(c1cccc2c(C)c(C)[nH]c12)C1CCN(C)CC1,0.055,.
c1cc(-c2ccc3c(c2)CCO3)[nH]n1,0.37,.
O=C(CCn1c(=O)sc2ccccc21)NCCC1=CCCCC1,-0.21,0.7
c1ccc(-n2nnnc2-c2ccc3ccccc3n2)cc1,3.1,1.6
CCOc1ccc(N(/C=C2\Sc3ccccc3C2=O)C(=O)c2ccc(C)cc2)cc1,13,-0.05
Cn1cnnc1SCC(=O)n1c2c(c3ccccc31)CCCC2,0.4,.
CCOC(=O)CC1=NN=C(N)SC1,-0.36,-0.15
O=C(Nc1ncn[nH]1)C(F)(F)C(F)F,.,-0.45
Cc1cc(C(=O)CSc2ccc(S(=O)(=O)N3CCCCC3)cn2)c(C)n1Cc1ccco1,.,0.45
CCOc1ccc(-c2nc(C#N)c(NCC(C)C)o2)cc1,0.59,0.95
CCn1c(C(=O)NCCc2ccccc2)cc2sc(Cl)cc21,-0.57,0.1
COc1ccc(F)cc1S(=O)(=O)N1CCN(c2c(C)cc(C)cc2C)CC1,0.065,-0.6
COc1cc(C2C(=O)N(C3CCC(C)CC3)CC(=O)N2Cc2ccc3c(c2)OCO3)ccc1OC(C)C (stereo not given),-0.36,0.15
